CtBP-E1A blk: qHTS Assay for Inhibitors of the CtBP/E1A Interaction; CtBP / adenovirus E1A interaction (AlphaScreen); AlphaScreen GST-E1A/His-CtBP binding, 1536-well; stronger effect = lower value; control for the full effect not named in the record; activity change, % (concentration not given with the values); 0.49% of 340,000 active; AID 651724, 2012; in the data active means activity change below about -65%; inconclusive means about -30% to -65%; inactive means above about -30%; also: % is scaled to controls: 0 for no effect and ±100 for the full control effect
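GST-E1A and His-tagged CtBP (125 nM each as 5X stock) were preincubated with pin-transferred compound for 2 h at 37 °C in the dark, then glutathione donor and nickel acceptor beads were added for 1 h before AlphaScreen reading.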
TRPML1 inh: qHTS for Inhibitors of the Human Mucolipin Transient Receptor Potential 1 (TRPML1); AID 624415, 2012; activity change, negative = inhibition, % (no concentration beside the values); TRPML1-inducible cells, Ca2+ dye fluorescence, FDSS; stronger effect = lower value; inhibition of EC80 agonist-evoked calcium signal; 0.02% of 390,000 active; Mucolipin-1 (Homo sapiens), Q9GZU1; in the data active means activity change below about -50%; inconclusive means about -30% to -50%; inactive means above about -30%;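 also: stimulus is agonist 54-4 at its EC80 concentration; % is scaled to controls: 0 for no effect and ±100 for the full control effect; compound concentration not given in the record; the text of the record puts the active cut at -80%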
Target sequence (Q9GZU1 whole entry, looked up): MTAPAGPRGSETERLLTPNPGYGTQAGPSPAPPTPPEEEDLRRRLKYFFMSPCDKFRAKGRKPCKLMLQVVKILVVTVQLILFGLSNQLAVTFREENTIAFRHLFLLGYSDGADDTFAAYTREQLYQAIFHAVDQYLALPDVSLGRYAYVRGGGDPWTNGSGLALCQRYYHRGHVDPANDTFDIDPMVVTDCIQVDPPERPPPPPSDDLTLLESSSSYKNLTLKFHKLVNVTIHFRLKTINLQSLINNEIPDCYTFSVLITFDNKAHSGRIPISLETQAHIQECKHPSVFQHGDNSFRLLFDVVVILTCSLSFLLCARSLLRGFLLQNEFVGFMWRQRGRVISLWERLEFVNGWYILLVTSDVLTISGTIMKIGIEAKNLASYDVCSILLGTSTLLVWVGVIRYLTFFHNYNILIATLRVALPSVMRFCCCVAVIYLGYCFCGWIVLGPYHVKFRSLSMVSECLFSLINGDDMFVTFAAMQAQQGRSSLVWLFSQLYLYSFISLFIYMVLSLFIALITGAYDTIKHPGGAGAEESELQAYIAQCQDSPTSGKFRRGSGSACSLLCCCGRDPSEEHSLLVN
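Tet-induced TRPML1-DL cells loaded with Ca8 no-wash calcium dye were read kinetically on FDSS. Compound addition was followed by EC80 agonist 54-4 (4 uM final); inhibition was read over 110 s.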
PINK1 modulator: A Quantitative High throughput Screen to Identify Chemical Modulators of PINK1 Expression. 0.2% of 410,000 active. Potency, µM (series often up to 76.6 µM), for the others: at the top dose activation (PINK1 increase), most hits filed as activators. AID 624263, 2012. PINK1 immunofluorescence, high-content cytometry, 24 h; active = well fitted activation curve with a large enough effect; inconclusive = small, poorly fitted or top-dose-only effect; inactive = flat fitted curve, though single readings scatter; cell line not stated here;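 also: potency is read from the fitted curve at half-maximal effect; % of control where 0% means no effect; nearly all actives have a fitted effect of over 65% in size; a mitochondrial uncoupler was the plate control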
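Fluorescence from anti-PINK1 antibody, together with nuclear and cell stains, was scanned on a laser-scanning cytometer. Before staining, stable-line cells were incubated 24 hours with compounds at 5 concentrations; primary antibody 12 h at 10 degrees C.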
D2 ag: Beta-Arrestin HTS for Positive Allosteric Modulators of the Human D2 Dopamine Receptor: Agonists | D(2) dopamine receptor (Homo sapiens), P14416 | DiscoveRx PathHunter D2 beta-arrestin, luminescence, 90 min; 100% = 57 uM dopamine signal | activation, % (no concentration beside the values) | 0.084% of 360,000 active; in the data active = activation above about 40%; inconclusive = about 15% to 40%; inactive = below about 15%; also: compound concentration not given in the record; the text of the record calls up to 30% inactive
Target sequence (P14416 whole entry, looked up): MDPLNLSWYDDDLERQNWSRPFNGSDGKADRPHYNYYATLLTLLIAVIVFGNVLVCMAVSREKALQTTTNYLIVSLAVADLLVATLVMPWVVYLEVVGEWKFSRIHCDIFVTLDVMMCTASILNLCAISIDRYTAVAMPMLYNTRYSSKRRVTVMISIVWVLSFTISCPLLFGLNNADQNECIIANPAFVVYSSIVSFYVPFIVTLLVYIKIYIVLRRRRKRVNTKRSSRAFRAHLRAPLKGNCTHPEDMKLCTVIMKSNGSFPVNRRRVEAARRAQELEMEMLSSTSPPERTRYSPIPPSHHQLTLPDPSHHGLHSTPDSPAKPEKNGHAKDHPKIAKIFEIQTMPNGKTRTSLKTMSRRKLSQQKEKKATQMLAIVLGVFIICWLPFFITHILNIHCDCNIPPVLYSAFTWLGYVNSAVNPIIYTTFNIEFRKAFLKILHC
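DiscoveRx PathHunter D2 beta-arrestin cells (2,100/well) attached overnight, then compound-stimulated 90 min at 37 C in HBSS/10 mM HEPES/0.1% Tween-20 buffer; beta-galactosidase complementation read by luminescence after 1 h at ambient temperature. Dopamine 57 uM final (EC100) as control.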
TRPML1 ag: qHTS for Agonists of the Human Mucolipin Transient Receptor Potential 1 (TRPML1). 0.12% of 410,000 active. AID 624414, 2012. activation, % (concentration not given with the values). Mucolipin-1 (Homo sapiens), Q9GZU1. TRPML1-expressing cells, Ca2+ dye fluorescence, FDSS; host cell line not named in the record; reference of the full effect not given here; in the data active = activation above about 50%; inconclusive = about 30% to 50%; inactive = below about 30%; also: 0% is about no effect; the text of the record puts the active cut at 80%
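Tetracycline-induced TRPML1-DL cells are seeded and incubated overnight before loading with a no-wash Ca2+ dye and quencher. Agonist activity is taken from the 110 s fluorescence read following compound pin-transfer on an FDSS, before EC80 54-4 challenge.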
Six1-Eya2 blk: qHTS Assay for Inhibitors of the Six1/Eya2 Interaction; 0.56% of 360,000 active; Homeobox protein SIX1 (Homo sapiens) + Protein phosphatase EYA2 (Homo sapiens), …; activity change, % (no concentration beside the values); AlphaScreen GST-Six1/His-Eya2 binding, biochemical; stronger effect = lower value; control for the full effect not named in the record; in the data active = activity change below about -65%; inconclusive = about -30% to -65%; inactive = above about -30%; also: % is scaled to controls: 0 for no effect and ±100 for the full control effect; compound concentration not given in the record
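Compounds are tested against tagged Six1 and Eya2 proteins bridged by glutathione donor and nickel acceptor beads; after a one-hour incubation at 37 °C without light, AlphaScreen emission is recorded.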
An asterisk follows results filed as active; u = inconclusive; x = not tested or not shown; & = joins results of further samples; [ ] = dose if it differs, or a comment.

SMILES	CtBP-E1A blk	TRPML1 inh	PINK1 modulator	D2 ag	TRPML1 ag	Six1-Eya2 blk
CCCCc1c(O)nc(SC2CC(=O)N(c3ccc(C(=O)OCC)cc3)C2=O)[nH]c1=O (stereo not given)	x	x	0.9%	-1.8	x	3
O=C1c2ccccc2C(=O)N1N(c1ccccc1)c1ccccc1	-6	48	-0.6%	-0.9	3.0	-5
COc1ccc(C2C(C(C)=O)=C(O)C(=O)N2c2cccnc2)c(OC)c1 (stereo not given)	-12	2	-2.0%	-0.1	1.2	6
Cc1ccc(OCCCCn2c(CO)nc3ccccc32)cc1	-7	-11	3.6%	3.2	0.5	1
Cc1nnc(SCC2=C(C(=O)O)N3C(=O)[C@@H](NC(=O)Cn4cnnn4)[C@H]3SC2)s1	1&8	-9	1.0%&1.3%	-3.4&-4.3	-0.1	-5&-4
CCOc1ccc(S(=O)(=O)Nc2ccc3oc(C)c(C(=O)OC(C)C)c3c2)cc1	x	15	u	x	1.9	x
COCCNC(=O)C1(C)CCCN(C(=O)c2ccc3c(c2)OCO3)C1 (stereo not given)	9	x	2.4%	-1.7	-0.8	3
COC(=O)CCCC1=CC2=C(c3ccccc3)C(=O)C(C)(OC(=O)C3CCCC3)C(=O)C2=CN1Cc1ccco1 (stereo not given)	-27	25	2.0%	0.4	1.5	-14
COc1ccc(NC(=O)CN2CCC(C(N)=O)(N3CCCCC3)CC2)c(OC)c1	0	-5	1.9%	-1.9	-0.4	8
O=c1c2oc3ccccc3c2ncn1Cc1ccc(F)cc1	-14	5	0.4%	-3.8	-0.2	4
COc1ccccc1CNc1nc(NCc2cnc(C)cn2)c2sccc2n1	-1	x	1.0%	-2.8	-0.6	-7
O[C@@H]1C[C@H](c2ccc(Cl)cc2)N(CC2CCCCC2)C[C@H]1n1cc(C2CC2)nn1	1	3	28%	-8.0	0.9	1
CCn1c(C(=O)Nc2ccccc2C(=O)OC)cc2sc(Cl)cc21	x	-5	-0.7%	x	-0.5	x
Cc1ccc2nc(NC(=O)C3=NN(c4ccccc4)C(=O)CC3)sc2c1	0	-7	-0.2%	-2.0	0.7	-12
Cc1ccc(C(=O)CSc2ncnc3ccccc23)o1	3	7	-1.6%	-1.9	-0.4	-5
CC1CCN(Cc2cnc(Cl)s2)CC1	13	31	1.7%	-2.7	0.1	1
COCCCNC(=O)c1ccc(Cn2c(SCc3cccc(C)c3)nc3cccnc32)cc1	x	0	-0.3%	x	0.5	x
CCc1cccc(NC(=O)CN(C)S(=O)(=O)c2cccs2)c1	0	-2	8.5%	2.9	2.2	6
CC(=O)c1ccc(O[C@@H]2O[C@H](CO)[C@@H](O)[C@H](O)[C@H]2O)cc1	4	-5	0.8%	-1.3	0.5	8
O=C(O)Cn1ncc2c1-c1ccoc1CC2	-7	1	-0.5%	5.7	-0.1	-4
COc1ccc(-n2nc3c(N4CCC(C(=O)N5CCCCCC5)CC4)nnc(C)c3c2C)cc1	-14	-2	-0.7%	-6.8	0.8	-16
COc1ccc(CN2CCC(C(=O)c3cccc(Cl)c3)CC2)cc1	2	-17	0.6%	1.4	0.1	1
Cc1ccc(C(=O)N2CCC(C(N)=O)CC2)cc1C	3	14	5.8%[38.3 µM]	-1.0	-0.6	5
CCOC(=O)N1CCC(N(CCOC)C(=O)Nc2ccc(Cl)cc2)CC1	-4	-17	-1.8%	-8.8	-1.0	7
CCc1nn(CC(=O)NCc2ccc(C)cc2)c(=O)c2cc3occc3n12	x	0	2.3%	x	-1.2	x
COc1ccc(S(=O)(=O)N2CCCCCC2)cc1C(=O)Nc1ccc(C(=O)N(C)C)cc1	-11	0	0.9%	-1.3	-0.9	-4
Cc1cc(C)n(-c2nnc(C)n2/N=C/c2ccc(O)cc2)n1	3	-10	1.0%	-14	-0.1	-5
O=C(Nc1ccncc1)c1cccc(F)c1	2	-2	-0.9%	-1.3	0.3	10
O=C(NCc1ccccc1Cl)/C(=C\c1cccnc1)NC(=O)c1ccccc1	-7	4	-0.9%	-1.6	-0.6	4
N#C/C(=C\Nc1ccc(F)c(Cl)c1)S(=O)(=O)c1ccccn1	0	-6	-0.6%	-2.5	-0.4	2
Cc1ccc(NC(=O)CSc2ccccc2NC(=O)c2ccccc2)cc1Cl	-15	-26	4.7%	-0.8	0.1	-10
COC(=O)C(=NNc1c(C)n(C)n(-c2ccccc2)c1=O)C(=O)OC	-15	2	-0.7%	-2.3	0.3	-10
COc1ccccc1CNc1ncnc2onc(-c3ccc(F)cc3)c12	x	28	0.7%	x	2.5	x
COc1ccc(-c2cc(-c3ccc(F)cc3)nc(N3CCN(C)CC3)n2)cc1	-9	-24	18%	-4.5	-0.4	5
O=C(NCCCN1CCCC1=O)C1CCN(S(=O)(=O)c2ccccc2)CC1	x	-13	1.3%	-1.2	-0.4	3
C#CCOCCOCCOCCNc1nc(N2CCN(C(=O)[C@H]([C@@H](C)O)n3cc(CCCCN)nn3)CC2)nc(N2CCN(C(=O)[C@H](CCCCN)n3cc(CCC(=O)O)nn3)CC2)n1	3	0	0.7%	-1.2	-0.9	0

Four successive compounds out of the list so far, quoted:
SMILES	CtBP-E1A blk	TRPML1 inh	PINK1 modulator	D2 ag	TRPML1 ag	Six1-Eya2 blk
COc1ccccc1CNc1ncnc2onc(-c3ccc(F)cc3)c12	x	28	0.7%	x	2.5	x
COc1ccc(-c2cc(-c3ccc(F)cc3)nc(N3CCN(C)CC3)n2)cc1	-9	-24	18%	-4.5	-0.4	5
O=C(NCCCN1CCCC1=O)C1CCN(S(=O)(=O)c2ccccc2)CC1	x	-13	1.3%	-1.2	-0.4	3
C#CCOCCOCCOCCNc1nc(N2CCN(C(=O)[C@H]([C@@H](C)O)n3cc(CCCCN)nn3)CC2)nc(N2CCN(C(=O)[C@H](CCCCN)n3cc(CCC(=O)O)nn3)CC2)n1	3	0	0.7%	-1.2	-0.9	0

Further records:
SMILES	CtBP-E1A blk	TRPML1 inh	PINK1 modulator	D2 ag	TRPML1 ag	Six1-Eya2 blk
Cc1ccc2cc(CCNC(=O)Cc3cccs3)c(=O)[nH]c2c1	-3	22	-0.9%	-2.8	-0.5	5
CC(=O)N1c2ccc(S(=O)(=O)N3CCCC(C(=O)N4CCCCC4)C3)cc2CC1C (stereo not given)	9	-8	0.0%	9.1	-0.8	0
CCOC(=O)c1c(C)[nH]c(C(=O)NCCN2CCOCC2)c1C	0	8	3.6%	-4.8	1.0	10
COCCNC(=O)Cc1ccc(F)cc1	-1	-5	-0.3%	-1.8	-0.2	-1
COc1cc(C(C(=O)NCC2CCCO2)N(C(=O)Cn2nnc3ccccc32)c2ccc(OC)c(OC)c2)ccc1O (stereo not given)	3	0	-2.0%	-0.8	-1.1	-3
CCOC(=O)c1c(Nc2nc(C)c(C(=O)NC)s2)sc(C)c1C	9	-4	6.6%	0.4	-0.2	8
Oc1[nH]c2ccccc2c1N=NC(=S)NCCc1ccccc1	-29	32	14%	-5.2	4.6	u
CC(NC(N)=O)C(=O)Nc1ccc(Cl)c(S(=O)(=O)Nc2ccc(Cl)cc2)c1 (stereo not given)	x	-25	0.2%	-6.0	3.6	28
Cn1c(SCc2ccccc2Cl)nc(C(F)(F)F)cc1=O	7	-12	16%[38.3 µM]	1.2	-0.4	4
O=C(O)C1CC(c2ccccc2)=NO1 (stereo not given)	8	-23	0.4%[38.3 µM]	-0.7	0.4	1
CN(C)S(=O)(=O)c1ccc(NCC2COc3ccccc3O2)c([N+](=O)[O-])c1 (stereo not given)	-23	-14	1.1%	-1.9	-0.1	-17
O=c1c2cc(N3CCOCC3)ccc2[nH]c(=S)n1CC1CCCO1 (stereo not given)	1	-4	3.1%[38.3 µM]	0.6	-0.7	0

Individual results from above:
Under Six1-Eya2 blk, `CCOC(=O)c1c(C)[nH]c(C(=O)NCCN2CCOCC2)c1C` has the entry 10
Under TRPML1 ag, `CCOC(=O)c1c(Nc2nc(C)c(C(=O)NC)s2)sc(C)c1C` has the entry -0.2
Under TRPML1 ag, `COCCNC(=O)Cc1ccc(F)cc1` has the entry -0.2

(cont.)
SMILES	CtBP-E1A blk	TRPML1 inh	PINK1 modulator	D2 ag	TRPML1 ag	Six1-Eya2 blk
CC(C)CC(C(=O)O)N(Cc1ccccc1)Cc1ccccc1 (stereo not given)	6	-8	0.9%	-2.4	-0.7	6
O=C(NCCCN1CCCC1=O)C1CCN(S(=O)(=O)c2cc(C(F)(F)F)ccc2Cl)CC1	-2	-8	-1.9%	0.0	0.2	9
COc1ccc(NC(=S)N2CCC(NC(=O)C3CCCCC3)CC2)cc1	3	2	0.6%	-2.0	0.1	-1
COc1ccccc1C(=O)Nc1ccc2nc(SCC(=O)N3CCCC3)sc2c1	x	-19	1.5%	x	0.8	x
CCOc1ccc(CNC(=O)CCn2c(=O)c3cccn3c3ccc(F)cc32)cc1	x	9	-1.1%	x	2.7	x
CC(Oc1ccc(-c2ccccc2)c(F)c1)c1ccn(S(=O)(=O)c2ccc(Br)cc2)n1 (stereo not given)	7	8	6.5%	-3.6	-0.1	5
O=C(Nc1nnc(-c2ccco2)o1)c1cccc(N2C(=O)CCC2=O)c1	-3	-1	2.3%	0.7	0.6	-14
COc1ccc(C(=O)/C(=C\N(C)C)n2nc(C)cc2C)cc1	9	-2	1.4%	-4.3	-0.5	2
Cc1ccc(N(C)C(=O)C2CCCN(c3ncnc4c3nc3n4CCCCC3)C2)cc1C (stereo not given)	x	-16	2.2%	x	0.0	x
NS(=O)(=O)c1ccc(NC(=O)COC(=O)CCC2CCCCC2)cc1	1	9	4.3%	-11	0.6	-4
Cc1cc(C(=O)COc2cccc(-n3cnnn3)c2)c(C)n1-c1ccccc1	-7	9	-3.9%	1.6	1.5	-14
CCCCN(CC)CCCNC(=O)c1csc2c1CCCCC2	-8	20	-2.3%	-4.4	2.2	-1
O=C(Cc1cn2ccsc2n1)Nc1cccc2cnccc12	2	12	-0.1%	-0.4	-0.4	-1
O=C(Nc1ccccc1N1CCN(c2ccccc2)CC1)C12CC3CC(CC(C3)C1)C2	3	-10	3.0%	1.0	-0.5	-1
CC(C)OCCCNC(=O)CN1C(=O)CSc2ccc(S(=O)(=O)N3CCCCC3)cc21	5	26&-11	-2.1%&-4.6%	8.2	-0.6&0.1	1
CCc1ccc(NC(=O)N(CCCOC(C)C)C2CCN(C(C)=O)CC2)cc1	5	-7	1.2%[38.3 µM]	-0.8	0.3	3

Source: PubChem BioAssay (National Center for Advancing Translational Sciences (NCATS))
